Screening data from PubChem BioAssay.
E coli growth – blocks Escherichia coli growth; OD600 absorbance (concentration not given with the values); OD600, 23 h; hits give low values; actives 0.21% (n = 330,000);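 active = OD600 absorbance below the run mean of sample wells minus 3.6 SD, in any replicate, cut at about 0.56 in these data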;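 also: stock transfer was 300 nL into about 60 µL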
Vif A3G – HIV-1 Vif–A3G interaction blockers – biochemical, TR-FRET, GST-Vif 1-94, biotin-A3G peptide, dose response retest, primary screen (AID 1117319) | TR-FRET GST-Vif / biotin-A3G peptide binding; higher % means a stronger effect; test concentration not given here; strong numbers were not always called active | inhibition, %, or IC50 in µM where a hit was titrated | actives 0.57% (n = 260,000);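 active = above the screen mean plus three standard deviations and confirmed in dose response; inconclusive = results disagree or hit not tested in dose response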;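 also: Vif residues 1-94 fused to GST binding biotinylated APOBEC3G peptide 110-148; 0% = full assay without inhibitor and 100% = GST in place of GST-Vif; retest series ran down from 100 µM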
HNF4A DNA FP – change in binding of human HNF4 alpha to DNA. actives 0.3% (n = 360,000). HNF4a-FITC DNA binding, fluorescence polarization, 1 h. P41235. activity change, % at 10 µM; in the data active = activity change above about 30%, passing the limit was not always enough;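 also: controls were the assay level and a saturating level of protein; the project sought stronger binding though the title names inhibitors; some compounds called inactive have numbers as strong as hits; positive values seem to mean higher polarization but the record does not say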
Target sequence (P41235 whole entry, looked up): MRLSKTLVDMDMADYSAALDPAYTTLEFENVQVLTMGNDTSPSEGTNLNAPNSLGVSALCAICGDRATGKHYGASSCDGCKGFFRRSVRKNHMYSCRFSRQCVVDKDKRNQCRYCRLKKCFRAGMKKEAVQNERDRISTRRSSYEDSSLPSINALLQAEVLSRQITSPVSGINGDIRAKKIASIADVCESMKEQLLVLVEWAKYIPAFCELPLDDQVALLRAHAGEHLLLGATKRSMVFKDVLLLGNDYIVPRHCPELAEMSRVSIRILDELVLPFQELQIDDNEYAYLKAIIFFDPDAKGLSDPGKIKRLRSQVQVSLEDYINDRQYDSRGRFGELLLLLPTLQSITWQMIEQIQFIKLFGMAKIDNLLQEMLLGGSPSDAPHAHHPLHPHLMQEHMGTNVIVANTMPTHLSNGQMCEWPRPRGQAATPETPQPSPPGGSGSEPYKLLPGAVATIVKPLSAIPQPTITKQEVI
MLL AF4-AF9 inh – blocks AF4 peptide binding to human AF9; P42568; AlphaScreen, biotin-AF4 peptide binding to FLAG-AF9; inhibition, % at 10 µM; actives 0.47% (n = 350,000); AID 651704;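 active = every replicate reaching a set inhibition limit, whatever the replicate mean, cut at about 25% in these data; inconclusive = mean inhibition reaches that limit but some replicates miss it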;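 also: 0% = plate neutral control median and 100% = total signal loss; the record names both 10 and 1 µM as test concentration; the first replicate is given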
RanGTP-Impb inh – disruptors of Ran-importin-beta complex formation – biochemical, FRET, CFP-Ran, YFP-importin-beta, homogeneous, primary screen; cell-free CFP-Ran/YFP-importin-beta FRET ratio; actives 1.1% (n = 300,000); inhibition, % (no concentration beside the values);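 active = most replicates above 15%; inconclusive = exactly half above 15%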;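 also: 0% = DMSO wells and 100% = Ran loaded with GDP instead of GTP; wells of about 40 µL received 100 nL stock; the first replicate is given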
UCH37 DUB inh – human UCH37 deubiquitinating enzyme inhibition; Q9Y5K5; purified proteasome/UCH37, Ub-AMC cleavage fluorescence; inhibition, % (test concentration not listed); actives 0.33% (n = 330,000);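 active = mean of two replicates above 20%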;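 also: 0% = compound-free wells with enzyme and 100% = wells lacking proteasome; stock transfer was 100 nL into about 20 µL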
Target sequence (Q9Y5K5 whole entry, looked up): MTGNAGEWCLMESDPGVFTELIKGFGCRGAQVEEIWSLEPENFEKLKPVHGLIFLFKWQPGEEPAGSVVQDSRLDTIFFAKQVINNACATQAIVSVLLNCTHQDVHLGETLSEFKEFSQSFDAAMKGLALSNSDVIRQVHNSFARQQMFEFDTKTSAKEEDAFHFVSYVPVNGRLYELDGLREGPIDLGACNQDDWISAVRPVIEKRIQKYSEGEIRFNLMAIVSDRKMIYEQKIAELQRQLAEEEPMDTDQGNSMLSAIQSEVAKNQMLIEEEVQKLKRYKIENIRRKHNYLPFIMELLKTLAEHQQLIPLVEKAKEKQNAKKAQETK
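System: Proteasome-associated human UCH37 deubiquitinase; Input: 0.15 nM proteasome in added enzyme buffer; Also added: Ub-AMC substrate from 1 µM stock; Incubation: 30 min compound-proteasome preincubation then 25 min substrate reaction, room temperature; Detection: fluorescence, ex 355 nm, em 460 nm; Read-out: % inhibition of Ub-AMC cleavage fluorescence; Benchmarks: no-proteasome and no-compound wells.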
FGF22 binding – binders of recombinant human FGF22 by thermal shift; Q9HCT0; SYPRO orange fluorescence; percent of sucrose octasulfate shift, DMSO zero; calls only at 9.99 µM; actives 1.5% (n = 340,000);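 active = melting point raised past a set limit in the mean and every replicate; inconclusive = no clear call; three in four hits are not shown here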
Target sequence (Q9HCT0 whole entry, looked up): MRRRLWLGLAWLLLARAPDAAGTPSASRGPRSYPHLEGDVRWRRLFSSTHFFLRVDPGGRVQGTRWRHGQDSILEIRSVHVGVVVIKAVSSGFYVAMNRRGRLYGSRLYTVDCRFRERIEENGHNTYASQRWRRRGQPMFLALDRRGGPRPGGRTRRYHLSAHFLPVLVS
* marks the source's active call; other numbers are inactive results; i = inactive; ? = inconclusive; . = no result given; & = joins results of further samples. The list is partial; rates above refer to the full screens.

Start of the data: the first 2 compounds as a preview:
E coli growth,Vif A3G,HNF4A DNA FP,MLL AF4-AF9 inh,RanGTP-Impb inh,UCH37 DUB inh,FGF22 binding,SMILES
.,.,-0.7,-2.0,.,.,i,CN(C)C(=O)CNc1ccn2nc(-c3cccc(OCCN4CCOCC4)c3)cc2n1
0.73,.,2.5,-4.4,0.4,2.3,i,O=C(NC(=S)N1CCN(c2ccccc2)CC1)c1c(F)cccc1F

The whole of this part, from the start:
E coli growth,Vif A3G,HNF4A DNA FP,MLL AF4-AF9 inh,RanGTP-Impb inh,UCH37 DUB inh,FGF22 binding,SMILES
.,.,-0.7,-2.0,.,.,i,CN(C)C(=O)CNc1ccn2nc(-c3cccc(OCCN4CCOCC4)c3)cc2n1
0.73,.,2.5,-4.4,0.4,2.3,i,O=C(NC(=S)N1CCN(c2ccccc2)CC1)c1c(F)cccc1F
0.7,.,2.2,-0.9,.,1.7,i,CCOc1ccc(NC(=O)COC(=O)c2ccc(S(=O)(=O)N3CCOCC3)cc2)cc1
0.76,30%,0.9,.,.,7.0,.,FC(F)(F)c1nnc2ccc(N3CCCCCC3)nn12
0.71,.,-1.2,5.9,5.3,1.9,i,COc1ccc(C2=NS(=O)(=O)N(C)C(C(=O)N3CCCCC3C)=C2)cc1 (stereo not drawn)
0.66,-1%,3.7,1.6&-8.3,.,1.8,i,C[C@@H]1CN([C@H](C)CO)C(=O)c2cc(NC(=O)Nc3ccc4c(c3)OCO4)ccc2O[C@H]1CN(C)Cc1ccncc1
0.66,2%,1.2,-3.9,.,0.3,i,O=C(COC(=O)/C=C/c1cc(Br)ccc1F)NC1CC1
0.63,11%,-0.6,-3.1,123*,-141,i,CCCCn1c(=NC(=O)c2ccco2)c(C(=O)OCC)cc2c(=O)n3cccc(C)c3nc21
0.71,2%,1.6,-0.8,-1.2,2.5,i,O=[N+]([O-])c1nn(-c2ccccc2)[n+]([O-])c1N1CCN(c2ccccc2)CC1
.,0%,3.1,.,0.3,.,i,CCCCOc1ccc(CSC(=N)N)cc1Cl
0.71,0%&0%,-1.4,.,1.6,4.3,.,CCOC(=O)c1[nH]c(C)c(C(=O)N2CCN(c3ccc(F)cc3)CC2)c1C
0.72,16%,-0.3,.,2.1,5.1,.,O=C(Nc1cc(Sc2nc3ccccc3s2)cc([N+](=O)[O-])c1)c1cccc(F)c1F
0.73,0%,8.2,4.1,-2.1,8.8,i,O=C(CCN1C(=O)/C(=C\c2cccs2)SC1=S)Nc1ccc(C(=O)O)cc1
0.73,1%&7%,5.3,2.5,2.4,0.8,i,O=C(CSc1nnc(Cn2c(=O)sc3ccccc32)n1-c1ccccc1)NCC1CCCO1 (stereo not drawn)
0.73,-2%,-0.3,2.6,3.1,4.7,i,O=C(OCc1nc(-c2ccccc2)oc1COC(=O)c1ccco1)c1ccco1
0.68,.,-2.5,-1.1,3.4,4.6,i,CC(C)Oc1ccc(C(=O)NNC(=O)c2ccccc2C(=O)O)cc1
.,.,-0.1,-1.3,.,.,i,COc1ccc(C(C)(O)c2nc(-c3cccc(O)c3)cs2)cc1 (stereo not drawn)
.,26%,7.0,-1.1&0.1,-0.9,1.6,i,CC(=O)n1cc([C@@H]2C=C(C(=O)Nc3ccccc3)O[C@H](OCCCCO)C2)c2ccccc21
0.75,.,2.3,.,2.8,-6.4,.,Clc1ccccc1-c1nc2ccccc2c2nc3ccccc3n12
0.69,25%,2.9,.,-2.3,-0.3,.,O=C(Cn1cnc2scc(-c3ccc(F)cc3)c2c1=O)N1CCOCC1
.,-4%,15,.,-6.3,.,.,CC/C(=N/Nc1cccc(Cl)c1)c1cnnc(SC)n1
0.69,.,0.3,.,6.2,5.8,.,CCOC(=O)C(C(=O)c1ccccc1)C1CC(C)NC(=S)N1 (stereo not drawn)
0.71,.,0.5,0.7,1.7,1.2,i,CCCCn1nc(C(=O)OCC(=O)Nc2sccc2C(N)=O)c2ccccc2c1=O
0.69,2%,4.3,-0.7,1.5,2.1,i,CCOc1ccc(CNC(=O)CN2C(=O)C(c3ccccc3)Oc3cccnc32)cc1 (stereo not drawn)
0.69,.,2.3,3.6,5.2,2.0,i,O=C(Cn1cc(S(=O)(=O)N2CCCC2)c(S(=O)(=O)N2CCCC2)c1)NCc1ccco1
0.66,-1%,0.3,.,-1.3,3.2,.,CCCCCC(=O)NC(Nc1ccc(S(N)(=O)=O)cc1)C(Cl)(Cl)Cl (stereo not drawn)
0.68,31%,1.7,-1.6,?,3.1,i,Nc1ccc2c(c1)CC(=O)c1ccccc1S2
0.71,.,5.0,1.2,1.9,4.2,i,O=[N+]([O-])c1ccc(N2CCN(c3ccccc3O)CC2)cc1
0.68,?,0.7,-58,-1.1,2.9,i,COc1ccc(/C=C/C(=O)NCc2ccc(F)cc2)cc1S(=O)(=O)N1CCOCC1
0.71,-26%,0.5,-0.7,4.2,-15,i,O=C1NCCN(Cc2cccc(Oc3ccccc3)c2)C1CC(=O)N1CCCCC1 (stereo not drawn)
.,.,-3.0,3.1,.,6.3,i,C=CC[C@@H](CC(=O)N(CCO)Cc1ccccc1)C(=O)N[C@H](COC(=O)[C@@H](CC=C)CC(=O)OC(C)(C)C)C(C)(C)C
0.72,8%,-0.7,.,-3.9,-1.7,.,Cc1cc(C=O)c(C)n1-c1ccc(N2CCCCC2)c([N+](=O)[O-])c1
0.63,4%,6.0,.,-2.1,0.8,.,CCOC(=O)N1CCC(NCCNC(=O)c2ccc(Cl)cc2)CC1
0.71,.,-1.9,0.1,-0.2,5.9,i,CC(=O)Nc1cc2c(cc1NC(=O)Cn1nc(-c3ccc(F)cc3)ccc1=O)OCCO2
0.67,20%,1.3,.,5.9,5.9,.,COc1cc(Sc2ccc(C)cc2)c(OC)cc1N
0.74,32%,2.2,.,3.2,4.9,.,Cc1ccc(C(C(=O)NCC2CCCO2)N(Cc2ccccc2F)C(=O)Cn2nnc(-c3cccs3)n2)cc1 (stereo not drawn)
0.73,-4%,-0.2,-3.2,0.2,2.5,i,COc1ccccc1CC(=O)NNS(=O)(=O)c1ccccc1[N+](=O)[O-]
0.67,.,-3.1,.,4.9,-0.2,.,Cc1cccc(C)c1NC(=S)N(C)CCc1ccccn1
0.7,0%,1.0,0.8,?,1.4,i,Cc1cccc(NC(=O)Nc2cnccn2)c1C
0.7,-1%,-0.4,.,-0.1,i,.,C=CCN(c1ccccc1)S(=O)(=O)c1cccc(C(=O)Oc2ccc3c(C)cc(=O)oc3c2)c1
0.76,2%,-2.8,.,1.0,2.0,.,NC(=O)c1ccc(NC(=O)C2CCCO2)cc1 (stereo not drawn)
0.68,1%,9.2,.,0.9,-0.7,.,O=C(COc1ccc(Br)cc1)N1CCOCC1
0.72,.,-3.0,-0.8,-0.4,-1.4,i,CCCC(=O)C1=C(O)C(c2cccc(Oc3ccccc3)c2)CCC1=O (stereo not drawn)
.,1%,-0.1,.,-4.0,.,.,O=C(NCc1ccccn1)/C(=N/O)c1ccccc1
0.67,.,-3.2,-1.6,3.4,2.4,i,O=C(CN(Cc1ccccc1Cl)C(=O)c1csnn1)NCCc1ccccc1
0.71,.,1.5,2.5,.,-0.3,i,COc1ccc(N2CC(C(=O)N3CCN(S(=O)(=O)c4ccc(F)c(F)c4)CC3)CC2=O)c(OC)c1 (stereo not drawn)
0.66,3%,-0.9,.,?,-0.1,.,Cc1nccn1CCc1nc(N)nc(N)n1
0.72,13%,0.4,1.7,0.6,3.5,i,Cc1nn(C)c(C)c1CCC(=O)N1CCCC(N2CCN(c3ccc(F)cc3)CC2)C1 (stereo not drawn)
0.72,-1%,1.0,1.4,-0.5,1.2,i,COc1ccc(S(N)(=O)=O)cc1C(=O)OCCCOc1ccc(F)cc1
.,.,4.1,.,-0.5,.,i,O=C(CC(=O)N/N=C/c1ccc(F)cc1)N/N=C/c1ccc(F)cc1
0.69,?,1.1,.,3.9,18,.,CC(C)c1cc(N=NC(N)=O)cc(C(C)C)c1O
.,4%,0.4,-2.1,0.0,.,i,C/C(=N/NC(=O)CNC(=O)c1cccc(F)c1)c1ccc2c(c1)CCCC2
0.65,-6%,-1.3,2.0,?,-0.8,i,O=C(COC(=O)CCNS(=O)(=O)c1ccccc1F)Nc1nnc(-c2ccccc2)o1
0.65,32%,0.4,-0.9,83*,1.8,i,CN1CCc2c(sc(NC(=O)c3ccco3)c2C(N)=O)C1
0.71,-3%,4.8,6.0,19*,-32,i,CCOC(=O)c1ccc(Nc2ccc([N+](=O)[O-])cn2)cc1
0.75,-3%,7.5,.,-1.2,-3.2,.,Nc1nonc1-c1nc2ccccc2n1Cc1ccccc1
0.69,7%,-18,1.9,-4.0,4.3,i,COc1cc(OC)cc(C(=O)NCc2ccc3c(c2)cc(C)n3C)c1
0.65,18%,2.9,.,-0.4,3.5,.,COc1ccc(S(=O)(=O)Nc2cccc(NC(C)=O)c2)cc1
0.71,11%,-1.7,.,59*,i,.,CCCc1cc(=O)oc2c(C)c(O)c(CN3CCCCC3)cc12
0.69,0%,4.6,1.2,2.9,3.8,i,CC1(C)Cc2c(sc(NC(=O)Cc3ccccc3)c2C#N)CO1

(cont.)
E coli growth,Vif A3G,HNF4A DNA FP,MLL AF4-AF9 inh,RanGTP-Impb inh,UCH37 DUB inh,FGF22 binding,SMILES
0.68,.,-3.4,0.4,-0.3,1.5,i,CCc1cccc(NC(=S)N(CCOC)C2CCN(C(C)=O)CC2)c1
0.73,2%,2.7,-0.3,-5.0,0.9,.,CC(=O)Nc1cc(C(=O)NCCN2CCN(Cc3ccccc3)CC2)ccc1Sc1ccc(C)cc1
0.65,.,3.1,2.3,-2.5,2.5,i,Brc1cccc(CNc2nc3ccccc3n2CCN2CCOCC2)c1
0.71,.,3.6,2.8,3.4,1.1,i,CN1CCN(NC(=O)/C=C/c2ccc(C(C)(C)C)cc2)CC1
0.74,2%,-0.1,.,?,-116,.,COc1ccccc1NC(=O)c1oc2ccccc2c1NC(=O)c1ccco1
0.7,-5%,2.6,-7.0,1.8,2.9,i,Cc1ccc(NC(=O)CNC(=O)CC23CC4CC(CC(C4)C2)C3)c(O)c1
0.62,-10%,-1.3,-4.6,.,3.5,i,O=C(NNC(=O)C1CCN(C(=O)Nc2ccccc2)CC1)c1ccc([N+](=O)[O-])cc1
0.71,19%,-0.3,.,?,5.2,.,CCOc1ccc(N2C(=O)/C(=C\c3ccccc3OC)S(=O)(=O)C2c2cccc([N+](=O)[O-])c2)cc1 (stereo not drawn)

Individual results from the list:
CCc1cccc(NC(=S)N(CCOC)C2CCN(C(C)=O)CC2)c1 in MLL AF4-AF9 inh reads 0.4
CN1CCN(NC(=O)/C=C/c2ccc(C(C)(C)C)cc2)CC1 in MLL AF4-AF9 inh reads 2.8
COc1ccccc1NC(=O)c1oc2ccccc2c1NC(=O)c1ccco1 in UCH37 DUB inh reads -116
